D2 potentiator – human D2 receptor positive allosteric modulation; P14416; DiscoveRx D2 beta-arrestin cells, luminescence, 90 min; 100% = 57 uM dopamine signal; potentiation, % (concentration not given with the values); 360,000 compounds, 0.23% hits; AID 624464; active = potentiation of 50% or more; inconclusive = 30% to 50%; inactive = 30% or less;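 note: tested on top of an EC20 dose of dopamine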
Target sequence (P14416 whole entry, looked up): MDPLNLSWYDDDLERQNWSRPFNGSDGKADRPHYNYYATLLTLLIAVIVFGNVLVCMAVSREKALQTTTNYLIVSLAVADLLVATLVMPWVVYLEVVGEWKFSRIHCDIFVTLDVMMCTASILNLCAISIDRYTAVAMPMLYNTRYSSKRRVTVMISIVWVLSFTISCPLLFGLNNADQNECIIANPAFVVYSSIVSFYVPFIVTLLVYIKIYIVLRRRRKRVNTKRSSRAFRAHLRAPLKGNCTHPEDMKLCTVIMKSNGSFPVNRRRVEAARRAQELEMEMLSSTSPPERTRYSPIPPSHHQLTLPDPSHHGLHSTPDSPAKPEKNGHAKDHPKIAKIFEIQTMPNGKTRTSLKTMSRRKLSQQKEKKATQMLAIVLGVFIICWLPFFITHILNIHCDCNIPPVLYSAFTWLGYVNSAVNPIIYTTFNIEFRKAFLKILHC
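PathHunter beta-arrestin assay in DiscoveRx D2 cells. Compounds were added with an EC20 of dopamine (50 nM final) for 90 min at 37 deg C. Luminescence was read 1 h after detection reagent, with 57 uM dopamine as the EC100 control.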
gsp antagonist – gsp mutant antagonism | gsp-mutant cells, cAMP HTRF, 30 min; control for the full effect not named in the record | Potency, µM (doses to about 76.9 µM), inactives show top-dose activity change, negative = inhibition, hits mostly inhibitors | 340,000 compounds, 0.4% hits | AID 624288; active = falling curve of any shape with a large fitted effect; inconclusive = falling curve, mostly with a smaller effect; inactive = flat or rising curve; cell line not stated here;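 note: intracellular cAMP measured with PDE inhibitor Ro 20-1724 present during compound exposure; potency is the fitted concentration of half-maximal effect; % is set by controls: 0 for no effect and ±100 for the full control effect; nearly all actives have a fitted effect of over 65% in size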
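G418-selected cells were plated in DMEM/10% FBS for 16-24 h at 37C, then treated with compounds plus the PDE inhibitor […] (300 uM solution added) for 30 min at 37C. Intracellular cAMP was measured by HTRF after 30 min lysis at room temperature.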
Six1-Eya2 blk – Six1/Eya2 interaction inhibition; Q15475+O00167; AlphaScreen GST-Six1/His-Eya2 binding, biochemical; stronger effect = lower value; control for the full effect not named in the record; activity change, % (concentration not given with the values); 360,000 compounds, 0.56% hits; in the data active = activity change below about -65%; inconclusive = about -30% to -65%; inactive = above about -30%; note: % is set by controls: 0 for no effect and ±100 for the full control effect
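Compounds are tested against tagged Six1 and Eya2 proteins bridged by glutathione donor and nickel acceptor beads; after a one-hour incubation at 37 °C without light, AlphaScreen emission is recorded.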
CtBP-E1A inh – blocks the CtBP interaction with E1A; AlphaScreen GST-E1A/His-CtBP binding, 1536-well; stronger effect = lower value; control for the full effect not named in the record; 340,000 compounds, 0.49% hits; AID 651724; activity change, % (no concentration beside the values); in the data active means activity change below about -65%; inconclusive means about -30% to -65%; inactive means above about -30%; note: % is set by controls: 0 for no effect and ±100 for the full control effect
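In 5 uL wells, 23 nL compound meets equimolar GST-E1A and His-CtBP (5X stock 125 nM each) for 2 h, 37 °C. Beads (5X, 50 ug/mL) then 1 h, 37 °C, dark.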
D2 ag – agonists of human D2 dopamine receptor (beta-arrestin); activation, % (test concentration not listed); DiscoveRx PathHunter D2 beta-arrestin, luminescence, 90 min; 100% = 57 uM dopamine signal; AID 624465; 360,000 compounds, 0.084% hits; in the data active = activation above about 40%; inconclusive = about 15% to 40%; inactive = below about 15%; note: compound concentration not given in the record; the text of the record calls up to 30% inactive
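DiscoveRx PathHunter D2 beta-arrestin cells (2,100/well) attached overnight, then compound-stimulated 90 min at 37 C in HBSS/10 mM HEPES/0.1% Tween-20 buffer; beta-galactosidase complementation read by luminescence after 1 h at ambient temperature. Dopamine 57 uM final (EC100) as control.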
gsp ag – activates gsp, the McCune-Albright syndrome mutation; gsp mutant cells, cAMP HTRF, 30 min; control for the full effect not named in the record; Potency, µM (titrated, usually from 76.9 µM), for inactives: top-dose activation (cAMP increase), most hits filed as activators; 340,000 compounds, 0.13% hits; active = well fitted activation curve with a large enough effect; inconclusive = small, poorly fitted or top-dose-only effect, or another doubt; inactive = no such curve, though single readings can be large or run the other way; cell line not stated here;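 note: phosphodiesterase inhibitor Ro 20-1724 added with compounds to block cAMP breakdown; potency is the fitted concentration of half-maximal effect; nearly all actives have a fitted effect of over 60% in size; about a fifth of the inactives were tested at one dose only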
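Cells stably selected in G418 were plated at 2000/well, grown 16-24 hr, then given compounds in DMSO with the PDE inhibitor […] (300 uM solution added) for 30 min at 37C; cAMP was read by HTRF.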
An asterisk follows results filed as active; ? = inconclusive; nt = not tested or not shown; [ ] = dose if it differs, or a comment.

compound,Six1-Eya2 blk,CtBP-E1A inh,gsp antagonist,D2 potentiator,D2 ag,gsp ag
CN1C(=O)C(C)(C)c2cc(S(=O)(=O)NCc3ccc(Cl)cc3)ccc21,0,6,8%,1,2.0,26%
CCOc1cc(N2CCOCC2)c(OCC)cc1NC(=O)CC12CC3CC(CC(C3)C1)C2,?,?,-10%,-9,-3.2,-82%[inhibitor]
O=C(O)CCCn1cc(NC(=O)c2c(F)cccc2F)cn1,3,nt,-3%,-5,7.8,14%[15.4 µM]
N=c1c2c(n(Cc3cccc(Cl)c3)c3c1CCC3)CCCC2,-1,7,4%,-9,-2.0,-19%
CCOC(=O)CN(C(=O)CSc1nnc(CNc2ccc(F)cc2)n1C)c1ccccc1,-2,-3,-26%,-18,-4.1,-1%
O=c1[nH]c(CN2CCN(Cc3ccccc3)CC2)nc2scc(-c3ccccc3)c12,-4,-10,1%,-6,-1.6,7%[15.4 µM]
Cc1ccc(C(=O)N2C(=O)c3cccc(N)c3C2=O)o1,6,2,7%,-6,-0.9,22%[15.4 µM]
CON/C=C(\C=Nc1ccc(Cl)cc1)c1ncc(C(F)(F)F)cc1Cl,1,1,-2%,-3,-0.3,-11%
Cc1c(NC(=O)COC(=O)c2c3c(nc4ccccc24)CCCC3)c(=O)n(-c2ccccc2)n1C,-3,-7,5%,6,0.3,-23%
O=C1OC(N2CCN(C/C=C/c3ccccc3)CC2)c2ccccc21 (stereo not drawn),?,0,5%,-33,-3.4,-3%
Cc1ccc(C)c(NC(=O)CSc2nnc(Cc3cccn3C)n2-c2ccc(F)cc2)c1,-13,-6,-5%,-10,-0.8,-3%
Cc1cc(C)nc(Sc2ccc(/C=C(\C#N)C(=O)Nc3ccccc3)o2)n1,-8,-1,-11%,-7,-2.8,-65%[inhibitor]
O=C(c1ccco1)N1CCN(S(=O)(=O)/C=C/c2ccccc2)CC1,-7,3,-3%,23,2.4,2%
Cc1ccc(N=Nc2c(N)nn3c(C)cc(C)nc23)cc1,-20,-20,-13%,1,3.4,7%
COC(=O)c1onc(-c2ccccc2)c1C(=O)OC,0,2,-7%,-16,-3.2,5%
CCOc1ccc(NC(=S)N2CCC(NC(=O)c3ccco3)CC2)cc1,-2,9,5%,-5,-0.5,12%
O=C(COC(=O)CNS(=O)(=O)c1ccc(Br)cc1Cl)NCCc1ccccc1,-6,2,-13%,3,-6.0,-5%[15.4 µM]
CN(CC(=O)NCCc1ccccc1)S(=O)(=O)c1cccc2nsnc12,1,12,2%,16,-3.0,-67%[inhibitor]
CC(C)C[C@H](NC(=O)c1nc[nH]c1C(=O)N1CCNCC1)C(=O)OC(C)(C)C,-5,-11,-1%,-17,-2.9,nt
CC(C)(C)c1ccc(S(=O)(=O)Nc2ccc(C(O)(C(F)(F)F)C(F)(F)F)cc2)cc1,1,6,nt,-2,-3.3,nt
COc1ccccc1N1CCN(C(c2cccs2)C(C)NS(=O)(=O)c2ccccc2)CC1 (stereo not drawn),-10,-10,-15%,-4,-3.8,-4%
COc1cc(C(O)P(=O)(OC2CCCCC2)c2ccc(N(C)C)cc2)cc(OC)c1OC (stereo not drawn),-3,-13,-1%,-25,-0.3,-1%
Cc1ccc(-n2c3nc(=O)[nH]c(=O)c-3cc3c(C)nn(-c4ccccc4)c32)c(C)c1,9,-2,50µM*,-1,-3.3,-13%[15.4 µM]
Cc1ccc(CN2CCN(/N=C\c3cccc([N+](=O)[O-])c3)CC2)cc1,?,?,-9%,-12,-0.9,23%[15.4 µM]
Cc1ccc2c(c1)N(CC(=O)NCCc1ccc(Cl)cc1)C(=O)c1cccnc1O2,1,2,-22%,-2,1.0,30%
C=C(C)Cn1c(C)cc(C)c(S(=O)(=O)c2ccc(C)cc2)c1=O,22,28,-16%,2,2.6,-3%
Cc1c(O)ccc(C(=O)CN2CCN(c3ccccc3F)CC2)c1O,2,nt,-4%,-17,-1.2,15%
Cc1cc(=O)oc2c(C)c(OC(C)C(=O)NCC(O)c3ccccc3)ccc12 (stereo not drawn),4,4,-4%,6,-2.6,-55%[inhibitor]
CN(C)/C=C/C(=O)c1cccc([N+](=O)[O-])c1,-1,nt,1%,-7,-17,0%[15.4 µM]
CCOC(=O)N1CCN(S(=O)(=O)CCNC(=O)c2ccccc2)CC1,0,1,7%,0,-0.6,5%[15.4 µM]
CSc1ncccc1C(=O)OCC(=O)Nc1cccc(S(=O)(=O)N2CCOCC2)c1,2,-4,-15%,1,4.1,6%
CCOC(=O)c1c(CN2CCN(Cc3ccccc3)CC2)n(C)c2cc(Br)c(OC)cc12,-6,-2,-1%,-6,-4.4,0%
N#Cc1ccc(NC(=O)COC(=O)c2cccc(S(=O)(=O)N3CCCC3)c2)cc1,-18,-13,nt,-11,-6.4,-1%
Cc1ccc2nc(NNC(=O)c3ccc(S(=O)(=O)N4CCc5ccccc5C4)cc3)sc2c1,-10,-9,-11%,0,2.7,-13%
CC12CCCCC1NS(=O)(=O)OC2 (stereo not drawn),4,3,2%,-5,-3.3,nt
COc1ccc(C(=O)Nc2ccc(Nc3ccccc3)cc2)cc1Br,-17,?,?,-5,-0.3,3%[15.4 µM]
COc1ccc(/C=N/NC(=O)CNc2c(Br)cc(C)cc2Br)c(C(=O)O)c1OC,-4,5,-2%,-10,-3.5,-3%[15.4 µM]
O=C(N/C(=C\c1cccc([N+](=O)[O-])c1)C(=O)N1CCOCC1)c1ccc([N+](=O)[O-])cc1,4,nt,-4%,2,5.3,-20%
CC1(C)Cc2c(c(N3CCOCC3)nc3sc4c(NN)ncnc4c23)CS1,-1,-2,-4%,-20,-3.3,-14%
N#CC1=C(N)Oc2c(O)cc3ccccc3c2C1c1ccsc1 (stereo not drawn),?,?,-30%,-4,0.8,-16%[15.4 µM]
CCCCCC(=O)N1CC2(CC(c3cccc(NC(=O)[C@@H]4CCC(=O)N4)c3)=NO2)C[C@@H]1C(N)=O (stereo partly drawn),5,5,-7%,-10,-0.6,21%
Cc1cccc(C(=O)OCN2C(=O)c3ccccc3C2=O)c1[N+](=O)[O-],-4,-5,-5%,-9,-2.2,?
FC(F)Sc1ccc(NC(=S)NCc2ccccc2)cc1,2,4,-20%,-14,0.0,-7%[15.4 µM]
Cc1ccc(NC(=O)N2CCc3ccccc32)cc1C,3,7,-5%,-7,0.7,-19%
CCN1CCN(c2sc(S(C)(=O)=O)nc2S(=O)(=O)c2ccc(Cl)cc2)CC1,0,10,21%,-38,-3.4,?
COc1ccc(/C=C(/NC(=O)c2ccccc2)C(=O)N2CCCC2)cc1OC,2,5,7%,-3,-3.8,-20%
CSc1ncc(C(=O)Nc2ccc(C)cc2C)c(C)n1,13,-14,10%,0,-6.5,?
OCC1(CO)CCCC(CO)(CO)C1O,5,8,10%,-2,-0.1,-20%
O=C(C1CCCO1)N1CCN(c2ccccn2)CC1 (stereo not drawn),3,6,3%,4,-0.7,14%
CCOc1ccc2nc(N(CCN(C)C)C(=O)c3ccc4c(c3)CCCC4)sc2c1,?,?,3%,-16,-0.4,15%
Cc1ccc(S(=O)(=O)Nc2ccc(NC(=O)c3cccs3)cc2)cc1,2,nt,?,-2,-1.4,-52%[inhibitor]
O=C(c1ccco1)c1n[nH]nc1-c1ccccc1,3,4,-10%,-1,-1.9,-13%
CC1CCc2cc(F)ccc2N1C(=O)CCC(=O)O (stereo not drawn),8,6,5%,-4,3.7,3%
CCOc1ccc(-c2c(C(=O)N/N=C(\C)c3ccncc3)nnn2-c2nonc2N)cc1,7,nt,-12%,-3,0.7,21%
Cc1cccc(-n2ncc3c(=O)[nH]c(SCC(=O)Nc4cc(C)on4)nc32)c1,-3,5,-7%,-1,-0.8,-1%
COc1ccccc1CC1(C)NC(=O)N(CC(=O)N2CCc3ccccc3C2)C1=O (stereo not drawn),-2,-3,-2%,-6,0.4,-6%
CCOc1ccc(N2CC(C(=O)Oc3ccccc3)CC2=O)cc1 (stereo not drawn),0,13,-7%,3,1.4,7%
CC(C(=O)NC(=O)NC1CCCCC1)N1CCN(C(c2ccccc2)c2ccccc2)CC1 (stereo not drawn),-4,5,3%,-27,-5.0,-38%[inhibitor]
COc1ccc(N(CC(=O)Nc2nccs2)S(=O)(=O)c2c(C)nn(C)c2C)cc1,1,-21,-4%,-3,-2.7,-53%
CCOC(=O)NCc1ccc2c(c1)OCO2,4,0,4%,-11,-2.7,23%

Structures listed above that bear a hit mark in gsp antagonist:
compound,Six1-Eya2 blk,CtBP-E1A inh,gsp antagonist,D2 potentiator,D2 ag,gsp ag
Cc1ccc(-n2c3nc(=O)[nH]c(=O)c-3cc3c(C)nn(-c4ccccc4)c32)c(C)c1,9,-2,50µM*,-1,-3.3,-13%[15.4 µM]

Following part:
compound,Six1-Eya2 blk,CtBP-E1A inh,gsp antagonist,D2 potentiator,D2 ag,gsp ag
O=S(=O)(c1ccc(SCCOc2ccccc2)nc1)N1CCCC1,25,nt,-2%,-2,0.3,-14%
CN1CCN(C(=O)CSc2nnc(COc3ccc(Cl)cc3)o2)CC1,2,0,10%,3,0.0,8%[15.4 µM]
Cc1ccc(S(=O)(=O)N2CCN(C(=O)CC(C)n3nc(C)c(Cl)c3C)CC2)cc1 (stereo not drawn),0,-8,2%,-3,0.6,-5%[15.4 µM]
Cc1ccc(C(=O)NC2CCCC(C)C2C)cc1S(=O)(=O)N1CCCCC1 (stereo not drawn),4,-3,-20%,4,-2.6,1%[15.4 µM]
c1cnc(N2CCN(Cc3c[nH]c4ccccc34)CC2)nc1,-5,7,8%,?,?,-3%
O=C1CC[C@H](OCc2ccccc2)CCN1[C@H](CSc1ccccc1)Cc1ccccc1,-3,-3,-11%,-29,-1.8,nt
CCCCn1c(SCC(=O)Nc2cccc(C)n2)nnc1-c1ccco1,1,0,8%,-13,-1.3,0%
Cc1ccc(CN2CCN(/N=C\C=C\c3ccccc3)CC2)cc1,?,-26,-2%,-21,-1.9,19%[15.4 µM]
COc1ccc(C2CC(c3cccs3)=NN2c2ccccc2)cc1 (stereo not drawn),156,1,-8%,-28,-7.0,2%[15.4 µM]
COc1ccc(S(=O)(=O)NC2CC2)cc1Cl,4,8,-1%,-2,-2.5,-10%
Cc1cc(Cl)ccc1C(O)c1ncc(-c2ccc(Cl)cc2)[nH]1 (stereo not drawn),-10,-16,nt,-12,-4.2,nt
NC(=O)c1cc2ccccc2oc1=NCc1ccccc1,-10,-2,6%,-23,-2.4,-8%
Cc1cnc(C(=O)OCC(=O)N(Cc2ccccc2)C(C)(C)C)cn1,6,1,11%,-5,-3.8,-1%[15.4 µM]

Compound activity (PubChem)
